Screening results as filed in PubChem BioAssay.
Vaccinia inh = blocks a specific stage of Vaccinia orthopoxvirus infection. Vaccinia-infected cells, mCherry/Venus stage reporter fluorescence; active compounds read low; some inactives read as strong as hits. activity change (mCherry), % (no concentration beside the values). hit rate 0.01% among 89,000;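 active = mCherry past -33% and 40 or more points under the early reporter, replicates agreeing; inconclusive = past -33% without that gap or agreement; tested in A549 cells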;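 also: scaled between vehicle wells and reference inhibitor wells; 23 nL library stock went into each well; one replicate is shown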
Vaccinia inh Venus = recorded beside Vaccinia inh, whose call it bears; activity change (Venus), %; measured here: Venus reporter, other viral stage;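 negative = less Venus signal; first of two replicates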
* hit, by the source's call; ? = inconclusive; nt = not tested or not shown; & = joins results of further samples. A portion of the library; count on the stated rates, not on these rows.

Every second line gives: Vaccinia inh Venus | Vaccinia inh
1	COc1cccc(C(=O)Nc2ccc3c(c2)OC[C@@H](C)N(C(C)=O)C[C@@H](C)[C@H](OC)CN(C)C3=O)c1
    3 | 14
2	O=C(N[C@H]1CC[C@@H](CCNC(=O)C2CCOCC2)O[C@@H]1CO)c1ccccn1
    5 | 5
3	Cc1ccc(S(=O)(=O)Nc2ccc3c(c2)C(=O)N([C@H](C)CO)C[C@@H](C)[C@@H](CN(C)Cc2ccc(C(F)(F)F)cc2)OCCCC[C@H](C)O3)cc1
    nt | ?
4	CC(=O)N1CC(=O)N2[C@H](CO)[C@@H](c3ccc(-c4ccncc4)cc3)[C@H]2C1
    10 | 19
5	C[C@@H]1CN([C@H](C)CO)C(=O)c2cc(NC(=O)Cc3ccccc3)ccc2O[C@H]1CN(C)C(=O)Nc1cccc2ccccc12
    19 | 22
6	C[C@@H]1CN([C@H](C)CO)C(=O)c2cc(C#C[C@@H](C)O)cnc2O[C@H]1CN(C)Cc1cncnc1
    4 | 5
7	C[C@H]1CN([C@@H](C)CO)C(=O)c2cc(N(C)C)ccc2O[C@H]1CN(C)S(=O)(=O)c1ccccc1
    -12 | -3
8	C[C@@H]1CCCCO[C@H](CN(C)Cc2ccccc2)[C@H](C)CN([C@@H](C)CO)C(=O)c2cc(NC(=O)c3ccncc3)ccc2O1
    -22 | -19
9	CCC(=O)Nc1ccc2c(c1)OC[C@@H](C)N(C(=O)CN(C)C)C[C@H](C)[C@@H](OC)CN(C)C2=O
    12 | 2
10	COCCN(C[C@@H]1N[C@@H](CO)[C@@H]1c1ccc(-c2cccc(F)c2)cc1)C(C)=O
    -4 | -15
11	Cc1ccc(S(=O)(=O)Nc2ccc3c(c2)C(=O)N([C@H](C)CO)C[C@H](C)[C@H](CN(C)Cc2ccc(Cl)c(Cl)c2)O3)cc1
    -29 | -34
12	CC=Cc1ccc2n(c1=O)C[C@@H]1[C@@H](CO)[C@H](C(=O)OC)N(C(C)=O)[C@H]21 (mixture of isomers)
    10 | 14
13	C/C=C/c1cnc2c(c1)C(=O)N([C@H](C)CO)C[C@@H](C)[C@@H](CN(C)CC1CCOCC1)O2
    14 | 28
14	CO[C@H]1CN(C)C(=O)c2ccc(NC(=O)C3CC3)cc2OC[C@@H](C)N(CCc2ccccc2)C[C@H]1C
    0 | -2
15	Cc1ccc(-c2ccc3c(c2)O[C@H](CN(C)C(=O)C2CC2)[C@@H](C)CN([C@@H](C)CO)S3(=O)=O)cc1
    -23 | -21
16	Cc1ccc(S(=O)(=O)Nc2ccc3c(c2)CC(=O)N([C@@H](C)CO)C[C@@H](C)[C@@H](CN(C)S(C)(=O)=O)O3)cc1
    10 | 23
17	C[C@@H]1CN([C@H](C)CO)C(=O)c2cccc(NC(=O)c3cnccn3)c2O[C@@H]1CN(C)C(=O)Nc1ccc(C(F)(F)F)cc1
    10 | 7
18	CO[C@H]1CN(C)C(=O)c2ccc(NC(=O)C3CC3)cc2OC[C@H](C)N(C(=O)C2CCOCC2)C[C@H]1C
    7 | 6
19	CCNC(=O)C[C@H]1CC[C@H]2[C@@H](COc3ccc(NC(=O)C4CCOCC4)cc3C(=O)N2C)O1
    9 | 13
20	CCCN(C)C[C@@H]1OCCCC[C@@H](C)Oc2ccc(NS(=O)(=O)c3ccccc3)cc2C(=O)N([C@H](C)CO)C[C@@H]1C
    7 | 8

Full records, quoted from the list. Order of values: Vaccinia inh Venus | Vaccinia inh
`C[C@@H]1CN([C@H](C)CO)C(=O)c2cc(C#C[C@@H](C)O)cnc2O[C@H]1CN(C)Cc1cncnc1` in the list: 4 | 5
`CCC(=O)Nc1ccc2c(c1)OC[C@@H](C)N(C(=O)CN(C)C)C[C@H](C)[C@@H](OC)CN(C)C2=O` in the list: 12 | 2
`C/C=C/c1cnc2c(c1)C(=O)N([C@H](C)CO)C[C@@H](C)[C@@H](CN(C)CC1CCOCC1)O2` in the list: 14 | 28

Other compounds follow:
Every second line gives: Vaccinia inh Venus | Vaccinia inh
21	CCCNC(=O)N1C[C@@H](C)[C@H](OC)CN(C)C(=O)c2ccc(NC(C)=O)cc2OC[C@@H]1C
    8 | 9
22	C[C@@H]1CN([C@@H](C)CO)C(=O)Cc2cc(NS(=O)(=O)c3cn(C)cn3)ccc2O[C@@H]1CN(C)C
    11 | 7
23	C[C@H](CO)N1C[C@H](C)[C@H](CN(C)C)OCCCC[C@H](C)Oc2ccc(NS(=O)(=O)c3cn(C)cn3)cc2C1=O
    -3 | 27
24	O=C(CC1CC1)N1CC(=O)N2[C@H](C1)[C@@H](c1ccc(C#Cc3ccc(F)cc3)cc1)[C@@H]2CO
    nt | ?
25	CN1CCN(C(=O)C[C@H]2CC[C@@H](NC(=O)Nc3ccccc3F)[C@H](CO)O2)CC1
    0 | -3
26	COc1ccc(C#Cc2ccc([C@@H]3[C@@H](CO)N4CCCCN(C(=O)Nc5cccc(F)c5)C[C@@H]34)cc2)cc1
    nt | ?
27	O=C(C1CCOCC1)N1CC(=O)N2[C@H](CO)[C@@H](c3ccc(C4=CCCC4)cc3)[C@H]2C1
    -12 | 4
28	COc1ccc(S(=O)(=O)Nc2ccc3c(c2)C(=O)N([C@H](C)CO)C[C@H](C)[C@H](CN(C)C(=O)c2ccccc2)OCCCC[C@@H](C)O3)cc1
    11 | 17
29	COc1ccc2c3c(n(C)c2c1)[C@@H](CO)N(C(=O)Cc1ccccn1)CC31CN(CC2CCOCC2)C1
    -4 | 5
30	CO[C@@H]1CN(C)C(=O)c2cc(NS(=O)(=O)c3ccc(C)cc3)ccc2OC[C@H](C)N(C)C[C@H]1C
    0 | -4
31	C[C@@H]1CN([C@H](C)CO)C(=O)c2cccc(NC(=O)Nc3ccc(F)cc3)c2O[C@H]1CN(C)C(=O)Nc1cccc2ccccc12
    2 | 2
32	C[C@H]1CN([C@@H](C)CO)C(=O)c2cc(/C=C/c3ccccc3)cnc2O[C@H]1CN(C)C(=O)c1ccccc1
    -16 | -11
33	C[C@@H](NC(=O)C[C@H]1C[C@H]2c3cc(NS(C)(=O)=O)ccc3O[C@H]2[C@@H](CO)O1)c1ccccc1
    5 | 2
34	O=C(Cc1ccncc1)Nc1ccc2c(c1)[C@H]1C[C@H](CC(=O)N3CCc4ccccc4C3)O[C@H](CO)[C@H]1O2
    7 | 1
35	Cc1noc(C)c1NC(=O)NC[C@H]1CC[C@H]2[C@H](CN2Cc2cccc(-c3ccccn3)c2)O1
    3 | 6
36	C[C@H]1CN([C@@H](C)CO)C(=O)c2cccc(NS(C)(=O)=O)c2O[C@@H]1CN(C)C(=O)Nc1ccc(F)cc1
    9 | 27
37	CCNC(=O)C[C@H]1CC[C@H]2[C@@H](COc3ccc(NC(=O)Cc4ccccc4)cc3C(=O)N2C)O1
    4 | 5
38	C[C@H](O)C#Cc1ccc2c(c1)O[C@@H](CN(C)C(=O)c1ccccc1)[C@H](C)CN([C@@H](C)CO)S2(=O)=O
    0 | -2
39	COc1ccccc1-c1cn(CC[C@@H]2CC[C@H](NS(=O)(=O)c3ccccc3C)[C@H](CO)O2)nn1
    -5 | -16
40	C[C@@H]1CN([C@@H](C)CO)C(=O)c2cc(NC(=O)Cc3cn(C)c4ccccc34)ccc2O[C@@H]1CN(C)C(=O)Nc1cccc2ccccc12
    6 | 2
41	CNC[C@@H]1OCCCC[C@H](C)Oc2ccc(NS(=O)(=O)c3ccc(C)cc3)cc2C(=O)N([C@@H](C)CO)C[C@@H]1C
    0 | -2
42	COc1cccc(CN(C)C[C@@H]2OCc3cnnn3CCCC(=O)N([C@H](C)CO)C[C@H]2C)c1
    11 | 7
43	CCC(=O)Nc1ccc2c(c1)C(=O)N(C)C[C@@H](OC)[C@H](C)CN(C(=O)Nc1ccccc1F)[C@H](C)CO2
    12 | 7
44	Cc1ccc(-c2ccc([C@@H]3[C@@H](CO)N4C(=O)CN(C(=O)NC(C)C)C[C@H]34)cc2)cc1
    nt | ?
45	C[C@@H]1CN([C@H](C)CO)C(=O)Cc2cc(NC(=O)CCN3CCOCC3)ccc2O[C@H]1CN(C)CC1CCCCC1
    6 | -13
46	C[C@H](CO)N1C[C@H](C)[C@H](CN(C)C(=O)Nc2ccccc2)Oc2ncc(Br)cc2C1=O
    4&2 | 10&11
47	C[C@H](CO)N1C[C@H](C)[C@H](CN(C)S(=O)(=O)c2cn(C)cn2)Oc2ccc(NS(=O)(=O)c3ccc(F)cc3)cc2C1=O
    -9 | -10
48	O=C(Nc1cc(F)ccc1F)N1CCCCN2[C@H](CO)[C@@H](c3ccc(-c4ccccc4)cc3)[C@H]2C1
    nt | ?
49	CCC(=O)N[C@H]1C=C[C@H](CC(=O)NCc2ccccc2F)O[C@H]1CO
    7 | 9
50	COc1ccc(-c2cnc3c(c2)C(=O)N([C@H](C)CO)C[C@H](C)[C@H](CN(C)C(=O)Cc2ccncc2)O3)cc1
    10 | 0
51	O=S(=O)(c1ccccc1)N1CC[C@@H]2[C@H]1c1cc(Br)ccc1N[C@@H]2CO
    -15 | -20
52	C/C=C/c1ccc2c(c1)O[C@@H](CN(C)C(=O)c1cnccn1)[C@@H](C)CN([C@@H](C)CO)S2(=O)=O
    4 | 2
53	O=C(C[C@@H]1CC[C@H]2[C@@H](COC[C@@H](O)CN2C(=O)Nc2ccc(C(F)(F)F)cc2)O1)NCC1CC1
    0 | -9
54	C[C@H](CO)N1C[C@H](C)[C@H](CN(C)C(=O)Nc2cccc3ccccc23)Oc2ncc(-c3cccc(F)c3)cc2C1=O
    -5 | -5
55	CCCNC(=O)Nc1ccc2c(c1)C(=O)N(C)[C@H]1CC[C@@H](CC(=O)NCCCN(C)C)O[C@H]1CO2
    8 | 5
56	CN(C)CCCNC(=O)C[C@@H]1C=C[C@@H](NC(=O)c2ccccc2F)[C@H](CO)O1
    7 | 3
57	CCCNC(=O)N1CC2(C1)CN(C(C)=O)[C@@H](CO)c1c2c2ccc(OC)cc2n1C
    0 | 7
58	COc1ccc(S(=O)(=O)N2CCCCN3[C@H](CO)[C@H](c4ccc(C#CC(C)C)cc4)[C@@H]3C2)cc1
    -47 | -28
59	COc1ccccc1NC(=O)N1C[C@H]2[C@@H](c3ccccc31)[C@H](CO)N2Cc1ccccc1F
    -7 | -16
60	C[C@@H]1CN([C@H](C)CO)C(=O)c2cc(Br)cnc2O[C@@H]1CN(C)C(=O)Nc1ccc(F)cc1
    -2 | 2

Two entries drawn at random from the list so far, as already listed:
Every second line gives: Vaccinia inh Venus | Vaccinia inh
51	O=S(=O)(c1ccccc1)N1CC[C@@H]2[C@H]1c1cc(Br)ccc1N[C@@H]2CO
    -15 | -20
12	CC=Cc1ccc2n(c1=O)C[C@@H]1[C@@H](CO)[C@H](C(=O)OC)N(C(C)=O)[C@H]21 (mixture of isomers)
    10 | 14

(list continues)
Every second line gives: Vaccinia inh Venus | Vaccinia inh
61	COc1ccc(NC(=O)N(C)C[C@@H]2Oc3c(NC(=O)c4cnccn4)cccc3C(=O)N([C@@H](C)CO)C[C@H]2C)cc1
    6 | 7
62	O=C(C[C@@H]1C[C@H]2c3cc(NC(=O)c4ccc5c(c4)OCO5)ccc3O[C@H]2[C@@H](CO)O1)NCc1cc(F)ccc1F
    -1 | -7
63	C[C@@H]1CN([C@H](C)CO)C(=O)c2cc(NC(=O)c3ccncc3)ccc2O[C@H]1CN(C)C(=O)Nc1ccc(F)cc1
    6 | 1
64	C[C@@H]1CN([C@H](C)CO)C(=O)c2cc(NC(=O)Nc3ccc4c(c3)OCO4)ccc2O[C@@H]1CN(C)CC1CCCCC1
    -11 | -13
65	COCC(=O)Nc1ccc2c(c1)OC[C@@H](C)NC[C@H](C)[C@@H](OC)CN(C)C2=O
    9 | 13
66	C[C@@H]1CN([C@H](C)CO)S(=O)(=O)c2ccc(-c3ccccc3)cc2O[C@H]1CN(C)Cc1ccncc1
    nt | ?
67	C[C@H](CO)N1C[C@H](C)[C@H](CN(C)CC2CC2)OCCCC[C@H](C)Oc2ccc(NC(=O)c3ccccc3)cc2C1=O
    -21 | -29
68	CCS(=O)(=O)N1[C@H](CO)[C@@H](c2ccccc2C2=CCCCC2)[C@@H]1C#N
    -1 | 4
69	COc1ccc2c3c(n(C)c2c1)[C@@H](CO)N(Cc1ccc(F)cc1)CC31CCN(C)CC1
    nt | ?
70	O=C(Nc1cccc(F)c1)N1CC(=O)N2[C@H](CO)[C@H](c3ccc(C#CCC4CCCC4)cc3)[C@@H]2C1
    nt | ?
71	O=C(C[C@H]1C[C@H]2c3cc(NC(=O)Nc4ccc(C(F)(F)F)cc4)ccc3O[C@H]2[C@@H](CO)O1)NCc1ccc(Cl)cc1
    6 | -4
72	CC(C)NC(=O)Nc1ccc2c(c1)C(=O)N([C@H](C)CO)C[C@H](C)[C@@H](CN(C)C(=O)Nc1cccc3ccccc13)OCCCC[C@@H](C)O2
    29 | 34
73	O=C(C[C@@H]1CC[C@@H](NC(=O)c2cnccn2)[C@@H](CO)O1)NCc1ccccc1F
    10 | 6
74	CC(C)NC(=O)Nc1ccc2c(c1)CC(=O)N([C@@H](C)CO)C[C@H](C)[C@H](CN(C)Cc1ccncc1)O2
    -4 | 3
75	C[C@H]1CN([C@@H](C)CO)S(=O)(=O)c2ccc(Br)cc2O[C@@H]1CN(C)C(=O)Cc1ccccc1
    -2 | 7
76	O=C(C[C@@H]1C[C@@H]2c3cc(NC(=O)c4cccnc4)ccc3O[C@@H]2[C@@H](CO)O1)NCc1cccc(F)c1
    10 | 18
77	O=C(CN1CCOCC1)N[C@@H]1CC[C@@H](CCNC(=O)C2CCCCC2)O[C@H]1CO
    0 | 0
78	C/C=C/c1ccc2c(c1)O[C@H](CN(C)Cc1ccccn1)[C@@H](C)CN([C@@H](C)CO)S2(=O)=O
    -10 | -15

2 entries from above, with each value named:
[12] CC=Cc1ccc2n(c1=O)C[C@@H]1[C@@H](CO)[C@H](C(=O)OC)N(C(C)=O)[C@H]21 (mixture of isomers)
- Vaccinia inh Venus: 10
- Vaccinia inh: 14

[13] C/C=C/c1cnc2c(c1)C(=O)N([C@H](C)CO)C[C@@H](C)[C@@H](CN(C)CC1CCOCC1)O2
- Vaccinia inh Venus: 14
- Vaccinia inh: 28
